Screening results: PubChem BioAssay, Johns Hopkins Ion Channel Center
KCNQ2 enhance – enhances the rat KCNQ2 potassium channel; CHO-K1 KCNQ2, FluxOR thallium flux fluorescence; stronger effect = higher value; O88943; B-score at 10 µM; 310,000 compounds, 0.54% hits;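 active means fluorescence ratio B-score at least 3 SD of library B-scores, with initial fluorescence B-score within 3 SD, cut at about 5.3 in these data; same plate scores as AID 2156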;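 further: B-score of peak minus minimum over baseline fluorescence ratio after K+ and Tl+ stimulus; positive B-score means potentiation of KCNQ2 with more thallium influx and brighter signal; only the inactives scoring about 0 or higher are listed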
Target sequence (O88943 whole entry, looked up): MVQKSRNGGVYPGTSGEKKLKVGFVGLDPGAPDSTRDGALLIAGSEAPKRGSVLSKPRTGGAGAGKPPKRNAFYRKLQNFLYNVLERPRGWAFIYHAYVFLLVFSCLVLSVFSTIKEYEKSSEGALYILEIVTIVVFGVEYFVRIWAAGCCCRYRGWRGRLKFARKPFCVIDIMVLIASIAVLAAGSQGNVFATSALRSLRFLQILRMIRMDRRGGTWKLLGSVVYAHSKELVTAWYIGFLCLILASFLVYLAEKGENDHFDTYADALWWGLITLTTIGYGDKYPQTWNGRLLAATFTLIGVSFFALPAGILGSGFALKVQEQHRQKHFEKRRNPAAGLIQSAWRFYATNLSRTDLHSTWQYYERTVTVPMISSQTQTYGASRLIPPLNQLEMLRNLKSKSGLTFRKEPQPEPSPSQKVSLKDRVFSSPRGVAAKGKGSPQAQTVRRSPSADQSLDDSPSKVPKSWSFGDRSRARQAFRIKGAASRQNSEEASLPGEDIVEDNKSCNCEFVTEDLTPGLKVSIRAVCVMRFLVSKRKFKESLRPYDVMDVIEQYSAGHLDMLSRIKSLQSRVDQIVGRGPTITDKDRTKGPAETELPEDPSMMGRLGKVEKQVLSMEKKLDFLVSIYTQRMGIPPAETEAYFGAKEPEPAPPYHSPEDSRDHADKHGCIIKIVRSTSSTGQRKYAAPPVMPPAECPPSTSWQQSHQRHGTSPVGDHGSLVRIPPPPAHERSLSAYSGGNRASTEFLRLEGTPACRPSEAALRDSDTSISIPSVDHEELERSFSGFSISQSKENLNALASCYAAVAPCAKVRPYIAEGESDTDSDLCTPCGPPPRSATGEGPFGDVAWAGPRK
KCNQ2 enhance baseline – further read-out of KCNQ2 enhance, marked with its call; B-score; compound at 10 µM; measured here: initial fluorescence intensity artifact check;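 brightness before thallium and not channel activity; 0 = typical well and far values either way flag optical interference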
An asterisk follows results filed as active. An excerpt, so the mix of outcomes need not match the whole.

Order of results – KCNQ2 enhance | KCNQ2 enhance baseline
- CC(=O)N1CCc2cc(Br)cc(S(=O)(=O)N3CCc4ccccc43)c21
  0.88 | -0.29
- NS(=O)(=O)c1ccc(NC(=O)c2c(F)cccc2Cl)cc1
  1.08 | 0.02
- O=C(CSc1oc(-c2ccccc2)nc1S(=O)(=O)c1ccc(F)cc1)NCC1CCCO1 (centres undefined)
  0.25 | -0.9
- O=C(O)CC(CN1C(=O)c2ccccc2C1=O)c1ccccc1 (centres undefined)
  1.13 | 0.05
- CN(c1ccc(C(=O)NCc2ccc3c(c2)OCO3)cc1)S(C)(=O)=O
  0.18 | -0.09
- O=C(NC1CC1)c1sc2cc(Cl)ccc2c1Cl
  1.56 | 0.02
- C(=N\n1cnnc1SCc1ccccc1)/c1ccco1
  1.26 | -0.73
- CCOC(=O)C1=C(CN2CCN(C(=O)OCC)CC2)NC(=O)NC1c1ccc2c(c1)OCO2 (centres undefined)
  0.08 | -0.77
- COC(=O)c1c(C(=O)OC)c(-c2ccc(Br)cc2)n2c1CS(=O)C2 (centres undefined)
  0.31 | 0.8
- Nc1nnc(SCC(=O)Nc2cc(F)ccc2F)s1
  0.42 | 1.92
- Cc1cccc(C(=O)NC(C)c2ccc(-n3ccnc3)cc2)c1C (centres undefined)
  3.12 | -0.12
- Cc1cc(C)c(S(=O)(=O)N2CCN(S(=O)(=O)N3CCCCCC3)CC2)c(C)c1
  0.92 | -1.54
- CN(C)S(=O)(=O)c1ccc(C(=O)OCC(=O)NCc2ccco2)cc1
  1.6 | 0.85
- Cc1ccccc1NC(=O)C1CC(=O)N(Cc2ccccc2)C1 (centres undefined)
  0.51 | 0.28
- Clc1ccc(-c2ccccc2)nn1
  1.74 | 0
- CC(OC(=O)CCc1ccccc1)C(=O)Nc1ncc(Cl)cc1Cl (centres undefined)
  0.13 | 1.73
- Cc1ccc(N2C(=O)N(CC(=O)Nc3cccc(C)c3C)C(=O)C2C)cc1 (centres undefined)
  1.25 | -1.55
- COc1ccc(C)cc1N(C(=O)c1snc(C(N)=O)c1N)C(C(=O)NC1CCCC1)c1ccc(F)cc1 (centres undefined)
  0.01 | 1.73
- Cc1ccc(N(C(=O)Cn2nnc(-c3ccc(C)o3)n2)C(C(=O)NC2CCCC2)c2ccco2)cc1 (centres undefined)
  0.93 | -0.07
- COc1ccccc1NC(=S)NCc1ccco1
  1.01 | 0.41
- CCOC(=O)c1ccccc1NC(=O)c1n[nH]c(=O)c2ccccc12
  0.21 | 0.62
- CN(C)C(=O)c1cccn(Cc2cccc(C(F)(F)F)c2)c1=O
  1.31 | -1.36
- Cc1[nH]c2ccccc2c1-c1nc(N)sc1C
  2.16 | 2.19
- Cn1ncc([N+](=O)[O-])c1C(=O)Nc1ccc2c(c1)OCCO2
  0.09 | -0.01
- CCOC(=O)C1=C(CC)OC(N)=C(C#N)C1c1cccs1 (centres undefined)
  0.07 | 0.13
- O=C(CSc1oc(-c2ccco2)nc1S(=O)(=O)c1ccc(Cl)cc1)NCC1CCCO1 (centres undefined)
  0.35 | 0.01
- COCCOC(=O)C1=C(N)OC2=C(C(=O)CC(C)(C)C2)C1c1cccnc1 (centres undefined)
  1.03 | 0.03
- CCOC(=O)c1c(C)n(C)c2ccc(OCC(O)CN3CCN(C)CC3)cc12 (centres undefined)
  0.13 | 1.24
- CCOc1ncccc1C(=O)NCc1ccc(OC)cc1
  0.86 | 0.17
- CCC(C)N(C(=O)c1csnn1)C(C(=O)NCc1ccc(F)cc1)c1ccco1 (centres undefined)
  0.72 | -0.03
- Cc1ccc(S(=O)(=O)NC(CC(=O)O)c2ccco2)cc1 (centres undefined)
  1.21 | -0.25
- COC(=O)c1[nH]c2cc(OC)ccc2c1N=CN(C)C
  0.43 | 0.12
- O=C(NCc1ccccn1)c1ccc(OC2CCN(Cc3cccs3)CC2)cc1
  0.02 | 2.73
- O=C(c1nc2ccccc2[nH]1)c1ccccc1[N+](=O)[O-]
  0.39 | 2.98
- CN(C)c1nc(Nn2cnnc2)nc(N(C)C)n1
  0.62 | 0.84
- CC(C)(C)CC(=O)NCc1ccc(F)cc1
  0.83 | -0.02
- O=S(=O)(Nc1nc2c(s1)CCCC2)c1ccc2ccccc2c1
  0.15 | 0.06
- CCOC(=O)NC(=O)CSc1nc2ccc(C)cc2[nH]1
  0.06 | 0.38
- O=c1c(Cl)c(Cl)cnn1Cc1nnc(-c2ccc(Cl)cc2)o1
  1.28 | -1.04
- COc1ccc(C(c2sc3ncnn3c2O)N2CC(C)OC(C)C2)cc1OC (centres undefined)
  0.15 | -0.02
- O=C(COc1cccc(NC(=O)c2cccs2)c1)c1ccc(F)cc1
  1.58 | -0.31
- CCS/C(N)=N/N=C/c1cc(C)ccc1O
  0.03 | 1.34
- O=C(CCl)Nc1ccc(-c2ccccc2)cc1
  2.05 | -2.44
- Cn1c(=O)c2c(nc(Br)n2CCc2ccccc2)n(C)c1=O
  0.98 | -0.08
- Cc1ccc(NC(=O)COC(=O)Cn2cnc3ccccc32)c([N+](=O)[O-])c1
  0.01 | 0.09
- CCOC(=O)c1ccccc1NC(=O)CSc1nncn1C
  1.06 | 1.56
- O=S(=O)(c1ccccc1)n1ccc2cccnc21
  0.16 | -1.69
- COCCCNC(=O)Cc1ccccc1OC
  0.76 | -0.18
- CC(=O)NC1(C(F)(F)F)C(=O)NC(C)=C1C#N (centres undefined)
  1.29 | 0.5
- COc1ccc(NC(=O)c2cc3ccccn3n2)cc1
  3.32 | -0.95
- O=C(CSC1CC(=O)N(CCc2ccccc2)C1=O)Nc1cccc(Cl)c1 (centres undefined)
  1.16 | 1.59
- CCCS(=O)(=O)N1CCCC(C(=O)N2CCC(Cc3ccccc3)CC2)C1 (centres undefined)
  0.3 | -1.33
- Cc1ccc(-c2csc3nc(C)n(-n4cccc4)c(=O)c23)o1
  0.93 | -0.02
- O=S(=O)(NCCC1=CCCCC1)c1cccc2nsnc12
  0.63 | 0.25
- CCc1ccc(-c2cc(C(=O)O)c3ccccc3n2)s1
  0.47 | 0.97
- O=C(O)c1ccc(S(=O)(=O)NCc2ccc3c(c2)OCO3)cc1
  1.17 | 0.96
- CSc1nc(NC(C)=O)nc(C)c1Cl
  0.55 | -1.77
- COC(=O)CC1C(=O)NCCN1C(=O)CSc1nc2ccc([N+](=O)[O-])cc2s1 (centres undefined)
  0.43 | -0.13
- N[C@H]1CONC1=O
  1.33 | -1.22
- CC(C)C(=O)Nc1ccc(NC(=O)c2cccs2)cn1
  0.66 | -2.08

Continuation.
Order of results – KCNQ2 enhance | KCNQ2 enhance baseline
- O=C(NC1CCN(Cc2ccccc2Cl)CC1)c1ccccc1
  0.62 | 0.05
- Cc1ccc(SCC(=O)OCC(=O)N(CC(C)C)c2c(N)n(Cc3ccccc3)c(=O)[nH]c2=O)c(C)c1
  0.02 | 0.79
- N#CCc1ccc(C(=O)c2ccccc2)s1
  0.57 | 2.55
- O=C1N=C(N2CCN(c3ccccc3)CC2)SC1Cc1ccccc1 (centres undefined)
  0.28 | -1.52
- CCOc1ccc(C(C)C)cc1S(=O)(=O)n1ccnc1C
  1.15 | 0.62
- CC(C)(C)c1ccc(C(=O)Nc2ccc(C(=O)N3CCOCC3)cc2)cc1
  2.54 | 1.29
- COc1cccc(NC(=O)/C=C/c2ccccc2[N+](=O)[O-])c1
  1.03 | 0.52
- Cc1ccc2nsnc2c1S(=O)(=O)NC1CC1
  0.21 | -0.99
- COC(=O)C1=C(C)N(Cc2ccccc2)C(=O)N[C@H]1c1cccc(F)c1
  0.25 | -0.16
- Cc1ccc(CC(=O)NCCc2ccc(S(N)(=O)=O)cc2)cc1
  0.05 | 1.34
- COc1ccc(/C=C/C(=O)OCC(=O)Nc2ccc(N3CCOCC3)cc2)cc1
  1.03 | 0.07
- CN(C)CCCNS(=O)(=O)c1ccc(NC2CCCCCC2)c([N+](=O)[O-])c1
  3.23 | -0.54
- COc1ccccc1OCC(=O)N1CC2(C)CC1CC(C)(C)C2 (centres undefined)
  0.03 | 1.77
- CCN(CC)CCn1c(OC)cc(=O)[nH]c1=O
  0.08 | 0.06
- COc1ccccc1CNC(=O)Cc1ccc(OC)c(OC)c1
  1.8 | 0.76
- COc1ccc(C(C(=O)NC2CCCC2)N(Cc2ccc(F)cc2)C(=O)c2ccn[nH]2)cc1OC (centres undefined)
  0.47 | -0.05
- CCN(CC)C(=O)C1CCCN(C/C(C)=C/c2ccccc2)C1 (centres undefined)
  0.42 | -0.92
- Cc1nnc(SCC(=O)Nc2cc(C(F)(F)F)ccc2N2CCOCC2)o1
  0.41 | -1.52
- FC(F)(F)c1nnc(N2CCN(c3ccc(Cl)cc3)CC2)s1
  0.47 | -0.99
- O=C(NNC(=S)NC1CC2C=CC1C2)c1ccncc1 (centres undefined)
  0.81 | 0.16
- CCN(c1ccc(NC(=O)COC(=O)CCc2nc3ccccc3n2-c2ccccc2)cc1)C(C)C
  0.03 | -0.04
- NNC(=O)c1cc2c(s1)-c1cc(Cl)ccc1SC2
  1.41 | 0.13
- CCOc1ccc(OCCOCCNCCOC)cc1
  0.82 | -0.73
- COc1ccc(C(=O)c2c(C)c3ccccc3n2CC(O)CNC(C)C)cc1 (centres undefined)
  0.75 | -0.41
- COc1ccc2nc3ccccc3nc2c1NC(=O)c1ccc(Cl)cc1Cl
  0.84 | 0.04
- CCCCn1c(N)c(N(CCOC)C(=O)c2ccc3c(c2)C(=O)N(c2cc(C)ccc2C)C3=O)c(=O)[nH]c1=O
  0.96 | 0.04
- CS(=O)(=O)N(CC(=O)NN=C1CCCCCC1)c1ccc(Oc2ccccc2)cc1
  0.19 | 1.37
- Cc1cc(N2CCCCC2)c(F)cc1[N+](=O)[O-]
  0.38 | 1.73
- COCCn1c(COc2cccc(OC)c2)nnc1SCC(=O)NC1CCCC1
  1.1 | -0.82
- CC(=O)c1c(C)[nH]c(C(=O)CN2C(=O)NC(C)(C)C2=O)c1C
  1.04 | -1.11
- O=C(CNC(=S)N(Cc1ccccc1)Cc1cccnc1)NCCc1ccccc1
  1.52 | 0.06
- CC(C)C(=O)c1cn(CC(=O)NCc2ccco2)c2ccccc12
  2.06 | -1.51
- CSc1ccccc1NC(=O)COc1ccc(S(=O)(=O)N2CCCC2)cc1
  0.57 | 0.05
- Cc1ccc(C(=O)N(CC(=O)NC2CCCC2)Cc2cccs2)s1
  0.01 | -0.3
- O=C(Nc1ccncc1)c1cc(-c2cccc(Br)c2)nc2ccccc12
  0.09 | 0.51
- CCc1ccccc1NC(=O)c1cc(-c2cccc(O)c2)on1
  1.35 | -0.22
- Cc1ccc2c(c1)NC(=O)C(CC(=O)Nc1ccc(Br)c(C)c1)O2 (centres undefined)
  0.89 | -2.29
- COc1ccccc1C(=O)NCC(=O)OCC(=O)c1cccc2ccccc12
  0.17 | 0.03
- CCN1C(=O)/C(=C/c2ccc(C)o2)N(C)C1=S
  0.49 | 2.17
- Cc1ccc(S(=O)(=O)Oc2ccc(C(c3c(C)[nH][nH]c3=O)c3c(C)[nH][nH]c3=O)cc2)cc1
  0.73 | 1.26
- COc1ccc2c(c1)CCc1cc(C(=O)O)sc1-2
  0.05 | 0.92
- Cc1cc(=O)[nH]c(N/N=C/c2ccccn2)n1
  2.67 | -1.02
- CCc1ccc2oc(C(=O)Nc3nonc3CC)c(C)c2c1
  0.24 | -0.65
- CCCCNc1c(N)n(CC(C)C)c(=O)[nH]c1=O
  1.33 | 1.05
- COC(=O)n1c(=O)oc2cc(S(=O)(=O)N3CCCCC3)ccc21
  0.01 | -0.15

Part of the list above, tab-delimited:
smiles	KCNQ2 enhance	KCNQ2 enhance baseline
CC(C)C(=O)c1cn(CC(=O)NCc2ccco2)c2ccccc12	2.06	-1.51
CSc1ccccc1NC(=O)COc1ccc(S(=O)(=O)N2CCCC2)cc1	0.57	0.05

Back to the main list, starting 3 compounds before the break.
Order of results – KCNQ2 enhance | KCNQ2 enhance baseline
- CCc1ccc2oc(C(=O)Nc3nonc3CC)c(C)c2c1
  0.24 | -0.65
- CCCCNc1c(N)n(CC(C)C)c(=O)[nH]c1=O
  1.33 | 1.05
- COC(=O)n1c(=O)oc2cc(S(=O)(=O)N3CCCCC3)ccc21
  0.01 | -0.15
- O=c1c2cc(Cl)ccc2[nH]c(=S)n1Cc1cccs1
  5.3* | -2.58*
- COc1ccc(C(O)(C(C)C)C(CN2CCOCC2)c2ccccc2)cc1 (centres undefined)
  0.9 | 0.94
- COc1ccc(Nc2nc(CC(C)=O)ns2)cc1OC
  0.49 | 0.15
- O=C(CN1C(=O)NC2(CCCC2)C1=O)N1CCN(S(=O)(=O)c2cccc(F)c2)CC1
  0.13 | -0.84
- NC(=O)C1CC12c1ccccc1-c1ccccc12 (centres undefined)
  1.76 | -1.81
- CC1=NN(C(=O)c2c(Br)c(C)nn2C)C(O)(C(F)(F)F)C1 (centres undefined)
  10.6* | -0.99*
- O=C(CN1CCCCCC1)NCC1CCCO1 (centres undefined)
  0.07 | -0.11
- CCOC(=O)c1c(NC(=O)CSc2ncnc3[nH]ncc23)sc2c1CCC(C)C2 (centres undefined)
  0.04 | 0.01
- Cc1ccc(SCc2nc3ncccn3c2Br)cc1
  0.79 | -0.46
- N/C(=N\OC(=O)c1ccc2c(c1)OCO2)c1cccc(Br)c1
  0.8 | -0.22
- COc1cc(C(C)=O)ccc1COc1ccc(C(=O)OCC(=O)NC2CCS(=O)(=O)C2)cc1OC (centres undefined)
  1.31 | 1.5
- CSc1nc2c(cc1C#N)CCCCC2
  0.14 | -1.78
- COc1ccc(S(=O)(=O)N(C)C)cc1NCC(=O)Nc1cccc(C#N)c1
  0.48 | 1.09
- COc1ccc(C2CC(=O)N(c3ccccc3)C3=C2C(=O)CCC3)cc1 (centres undefined)
  0.06 | 0.64

Shown with the structure last: entries from further up.
KCNQ2 enhance,KCNQ2 enhance baseline,Molecule
0.62,0.84,CN(C)c1nc(Nn2cnnc2)nc(N(C)C)n1
0.83,-0.02,CC(C)(C)CC(=O)NCc1ccc(F)cc1
